AID2073: disruptors of CaV2.2 binding to Mint1 – biochemical, HTRF (AID 2073); inhibition, % at 20 µM, or IC50 in µM where a hit was titrated; actives 0.19% (n = 290,000); HTRF protein-protein interaction, Mint1-CaV2.2; higher % means a stronger effect; in the data active = inhibition mostly above about 51%, no sharp cut-off; inconclusive = no clear call, values can overlap the other calls; inactive = mostly below about 53%; note: some results filed as inactive read as strong as hits
XIAP displacement: XIAP antagonists, biochemical, IAP family, fluorescence polarization (AID 1018). XIAP BIR domain, fluorescence polarization peptide displacement; higher % means a stronger effect. actives 0.007% (n = 200,000). one-dose displacement, % at 20 µM; IC50 in µM for titrated hits; in the data active = displacement above about 50%; note: a part of the inactive calls stands beside numbers as strong as those of hits
P. falciparum M1AAP: malaria alanyl aminopeptidase activity blockers – biochemical, fluorogenic H-Leu-NHMec substrate, 1536-well (AID 1445); recombinant M1AAP, H-Leu-NHMec fluorogenic kinetic assay; higher % means a stronger effect; inhibition, % at 30 µM, or IC50 in µM where a hit was titrated; actives 0.42% (n = 220,000);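 active = primary inhibition above the hit cutoff, then over 50% inhibition at one or more dose response concentrations, cut at about 23% in these data, passing the limit was not always enough; inconclusive = conflicting primary data, or primary hits not chosen for dose response; inactive = low primary inhibition, or under 50% at every dose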;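 note: plate controls were DMSO full reaction for no effect and no enzyme background for full effect; strong numbers were not always called active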
LYP inhibition: PTPN22 lymphoid phosphatase activity blockers – biochemical, fluorescence intensity, uHTS (AID 1779) | recombinant LYP phosphatase, fluorescence intensity; higher % means a stronger effect | inhibition, % at 11.5 µM, or IC50 in µM where a hit was titrated | actives 0.054% (n = 290,000); in the data active = inhibition above about 50%;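 note: plate controls were vehicle with enzyme for no effect and no enzyme for full effect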
Lipid droplet: hepatic lipid droplet formation modulation; AML12 mouse hepatocytes, oleate lipid droplets, BODIPY imaging; inhibition, % at 6.5 µM; actives 0.4% (n = 240,000);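 active = lipid droplet intensity inhibited by at least 50%, with more than 500 cells counted; inconclusive = wells with under 300 cells, treated as cytotoxic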
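Material – mouse AML12 hepatocyte cell line, fixed after treatment · Compound dosing – one dose, 6.5 µM compound · Times – compound with oleate, overnight · Measured by – Image-based BODIPY and DAPI two-channel analysis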
SIAH1 antagonists: Siah-1 peptide-binding antagonists, primary screen, biochemical, fluorescence polarization, rhodamine-plectin, uHTS (AID 1817); Siah-1 / rhodamine-plectin peptide fluorescence polarization; higher % means a stronger effect; actives 0.02% (n = 290,000); displacement, % at 20 µM, or IC50 in µM where a hit was titrated;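 active = displacement of at least 50% at 20 µM, with a fluorescence ratio check between 0.3 and a set limit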;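 note: plate controls were Siah plus tracer with DMSO for no effect and tracer alone without Siah for full effect; strong numbers were not always called active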
P. falciparum M17LAP: P. falciparum M17LAP inhibitors, primary screen, biochemical, fluorogenic H-Leu-NHMec substrate, 1536-well (AID 1619) | recombinant M17LAP, H-Leu-NHMec fluorogenic kinetic assay; higher % means a stronger effect | inhibition, % at 30 µM, or IC50 in µM where a hit was titrated | actives 0.38% (n = 220,000);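 active = compound inhibiting the enzyme by more than half at any dose during confirmatory dose-response retesting; inconclusive = strong single-dose inhibitors picked by rank but not retested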;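 note: plate controls were full reaction with DMSO carrier for no effect and no enzyme background for full effect; strong numbers were not always called active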
ER stress rescue: rescue of cells from ER stress-induced death, primary screen, 384-well, CSM14.1, thapsigargin, ATP luminescence (AID 1222). CSM14.1 thapsigargin-induced death rescue, ATP luminescence; higher % means a stronger effect. one-dose cellular ATP content (survival), % at 20 µM; EC50 in µM for titrated hits. 190,000 tested, under 10 active;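 active = EC50 below 50 µM in the dose-response confirmation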;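 note: death triggered by thapsigargin at about 15 µM added after 2 h compound pretreatment; cell ATP read after overnight thapsigargin exposure of roughly 18 to 22 hours; normalized against plate controls of thapsigargin alone and 5% DMSO vehicle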
Lipid droplet cells 6.5 µM: recorded beside Lipid droplet, whose call it bears; cell count; measured here: cell count, cytotoxicity flag;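 cells counted across two imaged fields per well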
* hit, by the source's call; i = inactive; ? = inconclusive; · = no result given.

The first 3 entries, to show the layout:
1	CC(C)(C)c1ccc(-c2noc(CCC(=O)Nc3cccnc3)n2)cc1
2	CCN1/C(=C/c2cc[n+](C)cc2)C=Cc2cc(C)ccc21
3	O=C(Nc1ccc(OC(F)F)cc1)Nc1cccc(C(F)(F)F)c1
assay / compound	1	2	3
AID2073	-4%	-4%	0%
XIAP displacement	·	2.9%	-6.9%
P. falciparum M1AAP	·	3%	4%
LYP inhibition	-8%	-10%	-5%
Lipid droplet	1	-23	18
Lipid droplet cells 6.5 µM	769	507	788
SIAH1 antagonists	3%	-5%	-1%
P. falciparum M17LAP	·	30%	-8%
ER stress rescue	·	1.7%	-0.5%

This part in full (from the top)
1	CC(C)(C)c1ccc(-c2noc(CCC(=O)Nc3cccnc3)n2)cc1
2	CCN1/C(=C/c2cc[n+](C)cc2)C=Cc2cc(C)ccc21
3	O=C(Nc1ccc(OC(F)F)cc1)Nc1cccc(C(F)(F)F)c1
4	O=C(/C=C/c1ccc2c(c1)OCO2)Nc1nc(-c2ccccc2)cs1
5	S=C(NCCc1ccccc1)Nc1cccc2cnccc12
6	Cc1ccc(NC(=O)C2CCCN(c3ncnc4c3nc3n4CCCCC3)C2)nc1 (stereo not given)
7	Cc1ccc2nc(NC(=O)CSCC(=O)OCC(=O)c3ccc(Br)cc3)sc2c1
8	CCc1nc(N2CCN(C(=O)CCl)CC2)c2c3c(sc2n1)CC(C)CC3 (stereo not given)
9	COC(=O)c1ccccc1NC1=C/C(=N\S(=O)(=O)c2cccs2)c2ccccc2C1=O
10	COc1cccc(NC(=O)CN(C)CC(=O)Nc2ccc(C)c([N+](=O)[O-])c2)c1
assay / compound	1	2	3	4	5	6	7	8	9	10
AID2073	-4%	-4%	0%	26%	-18%	9%	20%	4%	2%	7%
XIAP displacement	·	2.9%	-6.9%	-2.4%	-12%	·	-4.5%	·	1.2%	·
P. falciparum M1AAP	·	3%	4%	9%	-3%	·	-2%	·	6%	·
LYP inhibition	-8%	-10%	-5%	9%	0%	-7%	-3%	-8%	-5%	-7%
Lipid droplet	1	-23	18	·	0	-20	·	14	-12	-19
Lipid droplet cells 6.5 µM	769	507	788	·	681	527	·	789	665	858
SIAH1 antagonists	3%	-5%	-1%	6%	3%	-4%	0%	-3%	-3%	0%
P. falciparum M17LAP	·	30%	-8%	-1%	13%	·	8%	·	23%	·
ER stress rescue	·	1.7%	-0.5%	-6.7%	-0.9%	·	3.5%	·	-7.2%	·

11	COc1ccc(CNS(=O)(=O)c2ccc3c(c2)CC(C)N3C(=O)C2CC2)cc1 (stereo not given)
12	N#CCc1ccc(NC(=O)c2ccc(CN3CCc4ccccc4C3)cc2)cc1
13	COc1cc(C2CC(c3cccs3)=NN2C(=O)CCl)ccc1OC(F)F (stereo not given)
14	COc1ccc(CS(=O)/C(Cl)=C(/Cl)C(=O)Nc2ccc(OC)nc2)cc1 (stereo not given)
15	O=C(NCc1cccnc1)/C(=C\c1ccc(-c2cccc(Cl)c2)o1)S(=O)(=O)c1ccccc1
16	Cc1ccccc1N(Cc1cc(=O)[nH]c2ccccc12)C(=O)CCl
17	S=C(NNc1ccnc2cc(Cl)ccc12)Nc1ccc(Cl)cc1Cl
18	COC(=O)CCn1nnc(-c2ccc(C(C)C)cc2)n1
19	O=C(OCn1ncc(Br)c(Br)c1=O)c1ccccc1Cl
20	Cc1ccc(C(C)C)c(OCc2ccc(C(=O)N/N=C/c3ccc(C(=O)O)cc3)cc2)c1
assay / compound	11	12	13	14	15	16	17	18	19	20
AID2073	1%	10%	5%	-9%	6%	2%	17%	10%	-7%	26%
XIAP displacement	·	·	·	-1.6%	-2.5%	·	·	-8.1%	-6.8%	·
P. falciparum M1AAP	·	·	·	4%	17%	·	5%	-4%	-2%	4%
LYP inhibition	-10%	-2%	-3%	1%	1%	-10%	-2%	6%	5%	18%
Lipid droplet	-2	·	0	4	-1	-4	4	0	10	-26
Lipid droplet cells 6.5 µM	721	·	668	425	616	908	644	618	741	665
SIAH1 antagonists	3%	4%	9%	-8%	4%	-4%	-2%	-5%	-2%	44%
P. falciparum M17LAP	·	·	·	49%	-3%	·	1%	-3%	4%	12%
ER stress rescue	·	·	·	-0.1%	-0.7%	·	·	-3.5%	-4.3%	·

21	CN(Cc1ccccc1)C1=CC(=[N+]2CCCCC2)CC(C)(C)C1
22	Cc1cc(Br)ccc1SCC(=O)OC/C(O)=C(\C#N)c1nc2ccccc2[nH]1
23	CC[n+]1ccc(/C=C/c2ccc(N(C)C)cc2)c2ccccc21
24	O=C(Nc1ccc(N2CCN(c3ncccc3C(F)(F)F)CC2)nc1)c1cccs1
25	c1ccc(CC2CCN(c3ncnc4sccc34)CC2)cc1
26	CC(=O)NC(c1ccccc1)c1cc([N+](=O)[O-])c2cccnc2c1O (stereo not given)
27	CC(=O)c1cccc(Nc2ncnc3ccc(Br)cc23)c1
28	COc1ccccc1CNc1ncnc2sccc12
29	CC(Nc1ncnc2ccccc12)c1ccccc1 (stereo not given)
30	CC[C@@]1(O)C(=O)OCc2c1cc1n(c2=O)Cc2cc3c(N)cccc3nc2-1
assay / compound	21	22	23	24	25	26	27	28	29	30
AID2073	0%	13%	-27%	-1%	5%	56%	0%	6%	9%	32%
XIAP displacement	·	·	-8.7%	·	-7.5%	1.6%	·	·	·	·
P. falciparum M1AAP	?	1%	21%	-1%	4%	5%	·	·	·	8%
LYP inhibition	2%	-3%	1%	-5%	0%	-2%	-5%	-8%	-6%	0%
Lipid droplet	-22	-14	-144	47	3	-10	-2	-68	-48	-4
Lipid droplet cells 6.5 µM	651	742	505	719	710	656	738	721	736	561
SIAH1 antagonists	4%	3%	-6%	1%	-4%	-8%	-3%	-4%	4%	5%
P. falciparum M17LAP	36%	7%	51%	-4%	1%	4%	·	·	·	2%
ER stress rescue	·	·	-3.4%	·	0.1%	0.1%	·	·	·	·

31	COc1ccc2cc3c(N)nn(C(=O)Cc4c[nH]c5ccccc45)c3nc2c1
32	Cc1ccc(C2=NOC(=O)/C2=C\C=C\c2ccccc2)cc1
33	O=C(CCC(=O)Nc1ccc(Br)cc1)N/N=C/c1ccccc1O
34	Cc1cc(C(=O)CSc2nnc(-c3cccs3)o2)c(C)n1-c1ccccc1
35	c1cc(-c2nnc3sc(C4CCCCC4)nn23)ccn1
36	CS(=O)(=O)c1ccc2nc(NC(=O)c3cccc(NS(=O)(=O)c4ccc(F)c(F)c4)c3)sc2c1
37	CCCCN(C)S(=O)(=O)c1ccc(C(=O)Nc2nnc(-c3cccs3)o2)cc1
38	C/C(=N\NC(=O)c1cc(C2CC2)nc2ccccc12)c1ccc(O)cc1O
39	COc1ccc(N(C(=O)CCl)C(C(=O)NCCc2ccccc2)c2cccs2)cc1 (stereo not given)
40	CC(C)Cn1c(N)c(C(=O)COC(=O)CC23CC4CC(CC(C4)C2)C3)c(=O)n(C)c1=O
assay / compound	31	32	33	34	35	36	37	38	39	40
AID2073	11%	26%	20%	-3%	0%	26%	10%	2%	-7%	-8%
XIAP displacement	·	-3.8%	·	-4.5%	-3.5%	-9.0%	-1.1%	·	-9.8%	-8.9%
P. falciparum M1AAP	·	3%	·	11%	7%	9%	-17%	·	-6%	-3%
LYP inhibition	0%	1%	-10%	8%	-10%	5%	2%	-6%	-4%	-1%
Lipid droplet	-3	41	10	0	·	-6	·	-6	33	-14
Lipid droplet cells 6.5 µM	625	685	843	641	·	733	·	700	648	712
SIAH1 antagonists	-7%	-4%	4%	16%	-1%	8%	-7%	6%	3%	0%
P. falciparum M17LAP	·	4%	·	1%	1%	-3%	12%	·	-8%	3%
ER stress rescue	·	-0.5%	·	-2.1%	2.8%	-0.8%	-1.1%	·	0.3%	-1.2%

41	COc1ccc2c(C)nc(Nc3nc(-c4ccccc4)cc(=O)[nH]3)nc2c1
42	Brc1ccc2ncnc(NCc3cccnc3)c2c1
43	O=C(NCc1ccccc1)C1=C[C@@H](c2csc3ccccc23)C[C@@H](OCCCCO)O1
44	O=[N+]([O-])c1cc(Cl)cc(/C=N/NC(=S)Nc2cc(S(=O)(=O)N3CCOCC3)ccc2Cl)c1O
45	CSc1cccc(NS(=O)(=O)c2ccc3c(c2)CCN3C(C)=O)c1
46	CCOC(=O)N=Nc1c2ccccc2c2nc3no[nH]c3nc12
47	Cc1nn(-c2ccccc2)c(Cl)c1CN(C(=O)CCl)c1ccc(Cl)cc1
48	O=c1[nH]c(-c2ccccn2)nc2sc(-c3ccccc3)cc12
49	CC(C)N1C(=O)/C(=C/c2nc3ccccc3c(=O)n2-c2ccccc2)c2ccccc21
50	Cc1scc(C(=O)N/N=C/c2ccc([N+](=O)[O-])o2)c1C
assay / compound	41	42	43	44	45	46	47	48	49	50
AID2073	7%	10%	-2%	22%	8%	3%	-2%	29%	0%	17%
XIAP displacement	·	·	-5.0%	·	·	-7.6%	-2.4%	-7.5%	0.1%	·
P. falciparum M1AAP	1%	1%	2%	22%	·	-5%	-1%	1%	7%	·
LYP inhibition	-3%	-5%	0%	0%	-6%	-10%	-5%	-4%	10%	-9%
Lipid droplet	34	-11	-11	-2	·	-17	-26	-139	-6	6
Lipid droplet cells 6.5 µM	673	706	726	762	·	609	605	433	607	693
SIAH1 antagonists	27%	12%	4%	11%	-5%	0%	4%	-6%	8%	-2%
P. falciparum M17LAP	10%	8%	3%	5%	·	3%	9%	4%	7%	·
ER stress rescue	·	·	0.1%	·	·	-0.8%	-2.4%	i	0.0%	·

51	CSC(=S)N/N=C/c1ccc(Br)cc1
52	O=C(N/N=C/c1ccc([N+](=O)[O-])o1)c1ccccc1-n1cccc1
53	COc1ccccc1C(=O)Nc1nc(-c2ccc(S(=O)(=O)N3CCOCC3)cc2)cs1
54	Cc1c(-c2ccccc2)oc2c(C(=O)N3CCN(c4ccc([N+](=O)[O-])cc4)CC3)cccc2c1=O
55	Cc1ccc2[nH]c3c(N4CCc5ccccc5C4)ncnc3c2c1
56	O=C(NC(=S)N1CCN(c2ccc(C(F)(F)F)cc2[N+](=O)[O-])CC1)c1cccs1
assay / compound	51	52	53	54	55	56
AID2073	0%	4%	-8%	7%	14%	-17%
XIAP displacement	-4.2%	·	-2.3%	-5.2%	-0.3%	-0.5%
P. falciparum M1AAP	7%	·	0%	15%	8%	8%
LYP inhibition	-1%	-1%	-2%	-2%	-3%	1%
Lipid droplet	9	2	-7	-3	·	6
Lipid droplet cells 6.5 µM	745	778	778	689	·	686
SIAH1 antagonists	7%	4%	2%	11%	2%	-2%
P. falciparum M17LAP	12%	·	-9%	3%	11%	2%
ER stress rescue	-1.0%	·	-4.6%	-0.3%	-0.3%	16%

From PubChem BioAssay

An excerpt (hit frequency here may not be typical).
